Compound activity as filed in PubChem.
Polio RdRp inh: inhibitors of poliovirus RNA polymerase binding and polymerization. P03300. poliovirus polymerase elongation, fluorescence polarization; active compounds read low. % elongation, % (compound at 16.7 µg/mL). 0.66% of 150,000 active; in the data active = % elongation below about 90%; also: some results filed as inactive read as strong as hits
Target sequence (P03300 1749-2209 limits assumed): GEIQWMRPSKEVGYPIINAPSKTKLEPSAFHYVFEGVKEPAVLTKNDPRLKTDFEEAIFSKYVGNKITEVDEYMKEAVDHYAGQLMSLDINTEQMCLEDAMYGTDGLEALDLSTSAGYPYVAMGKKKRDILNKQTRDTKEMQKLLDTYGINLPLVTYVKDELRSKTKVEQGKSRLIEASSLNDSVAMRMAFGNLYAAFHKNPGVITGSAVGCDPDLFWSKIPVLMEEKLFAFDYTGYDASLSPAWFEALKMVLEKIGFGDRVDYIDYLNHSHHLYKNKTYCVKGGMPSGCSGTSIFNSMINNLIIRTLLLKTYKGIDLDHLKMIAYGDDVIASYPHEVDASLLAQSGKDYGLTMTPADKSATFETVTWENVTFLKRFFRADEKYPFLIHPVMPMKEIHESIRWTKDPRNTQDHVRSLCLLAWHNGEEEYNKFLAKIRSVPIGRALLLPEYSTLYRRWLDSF
Polio RdRp inh intensity: recorded beside Polio RdRp inh, whose call it bears; % elongation; measured here: total intensity read-out; formula for this scale not given here;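 total fluorescence in place of polarization; lower means less elongation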
Active calls of the source: *.

Compound | Polio RdRp inh | Polio RdRp inh intensity
CCOCCCn1c(=N)c(S(=O)(=O)c2ccc(C)cc2)cc2c(=O)n3ccccc3nc21 | 104 | 107
O=C(NCC(c1cccnc1)N1CCOCC1)C(=O)Nc1ccc(F)cc1 (stereo not given) | 103 | 103
CNC(=O)C1CCC(Cn2c(=O)c3sccc3n(CC(=O)N3CCCC3)c2=O)CC1 (stereo not given) | 103 | 110
CCOc1ccc(CC(=O)Nc2cccc(-c3nc4cccnc4s3)c2C)cc1 | 107 | 103
CC(C)(C)OC(=O)N1CCC(c2c(C(=O)NCc3ccccc3)cnn2-c2cccc(F)c2)CC1 | 102 | 98
COc1cccc(C(=O)N(Cc2ccc(C)o2)C2CCS(=O)(=O)C2)c1 (stereo not given) | 113 | 113
CCOC(=O)c1ccccc1NC(=O)NCc1c(-n2cccc2)sc2c1CCCC2 | 99 | 104
N#Cc1cc2c(=O)n3ccccc3nc2n(-c2nnc(SCc3ccccc3F)s2)c1=O | 111 | 109
Cc1cc(C)cc(N(CC(=O)NCc2ccccc2Cl)S(=O)(=O)c2c(C)noc2C)c1 | 108 | 112
CCc1ccccc1NC(=O)Nc1ccc2c(c1)N(CC)C(=O)c1ccccc1S2 | 110 | 116
CCOc1ccccc1CN1CCc2nc(N3CCN(c4ccccc4F)CC3)ncc2C1 | 104 | 106
CC(=O)c1ccc(N2CCN(C(=O)CCc3nnc4n(C)c(=O)c5sccc5n34)CC2)cc1 | 102 | 103
COc1ccc(-c2cc(C(=O)Nc3ccn(Cc4ccc(C)cc4)n3)no2)cc1OC | 107 | 112
O=C(COc1ccc(F)cc1)Nc1ccc(Cl)c(-c2nc3ccccc3[nH]2)c1 | 111 | 111
CC(C)c1nn2c(=O)cc(COC(=O)c3ccc(NC(=O)COc4ccccc4)cc3)nc2s1 | 110 | 110
COC(=O)c1c(SCC(=O)Nc2ccccc2OC)[nH]c2ccccc2c1=O | 114 | 119
COc1cccc(Cn2c(=O)n(CC3CCC(C(=O)NC(C)C)CC3)c(=O)c3sccc32)c1 (stereo not given) | 108 | 113
COc1ccccc1OC(C)C(=O)Nc1c(C(=O)c2ccc(Cl)cc2)oc2ccccc12 (stereo not given) | 109 | 109
COc1ccc(CNc2ncnc3c2c(-c2ccccc2)cn3-c2cccc(C)c2)cc1 | 101 | 98
CCc1ccc(NCc2cc3cc4c(cc3n(CC(=O)Nc3ccccc3C)c2=O)OCCO4)cc1 | 104 | 107
Cc1cc(C(=O)N2CCN(c3cccc(C)c3C)CC2)c2c(C)nn(-c3ccccc3)c2n1 | 105 | 100
O=C(NCCc1ccc(Cl)cc1)c1cnc2sc(N3CCCCC3)nn2c1=O | 106 | 113
Cc1ccccc1C(=O)Nc1sc2c(c1C(=O)NCc1ccco1)CCC(C(C)(C)C)C2 (stereo not given) | 107 | 101
O=C(Nc1cccc(C(F)(F)F)c1)c1ccc(F)c(S(=O)(=O)N2CCc3ccccc3C2)c1 | 112 | 111
O=c1c(N2CCN(c3cccc(Cl)c3)CC2)csc2ccccc12 | 107 | 104
COc1ccc(N2CCN(S(=O)(=O)CCNC(=O)COc3ccccc3F)CC2)cc1 | 110 | 108
Cc1cccc(OCC(=O)N(Cc2ccc(N(C)C)cc2)Cc2ccco2)c1C | 98 | 89
Cn1c(CN2CCOCC2)nc2cc(NC(=O)c3ccccc3[N+](=O)[O-])ccc21 | 99 | 93
COc1ccc(Cl)cc1NC(=O)CCc1nc(-c2ccccc2F)no1 | 98 | 102
COc1ccc(Br)cc1[C@@H]1Nc2ccc(C(=O)O)cc2[C@@H]2C=CC[C@@H]21 | 104 | 115

Overlap with the part before: 3 compounds, followed by the next part.
Compound | Polio RdRp inh | Polio RdRp inh intensity
Cn1c(CN2CCOCC2)nc2cc(NC(=O)c3ccccc3[N+](=O)[O-])ccc21 | 99 | 93
COc1ccc(Cl)cc1NC(=O)CCc1nc(-c2ccccc2F)no1 | 98 | 102
COc1ccc(Br)cc1[C@@H]1Nc2ccc(C(=O)O)cc2[C@@H]2C=CC[C@@H]21 | 104 | 115
Cc1ccc(-c2cc(NC(=O)COc3ccc(Cl)cc3C)on2)cc1 | 105 | 112
Cc1ccc(NC(=O)Cn2cc(S(=O)(=O)Cc3cccc(Cl)c3)c3ccccc32)cc1C | 112 | 105
COc1ccc(C(=O)Nc2c(C(=O)c3ccccc3)oc3ccccc23)cc1 | 108 | 114
COc1ccc(/C=C/C(=O)Nc2nc3n(n2)C(c2ccccc2)C=C(c2ccc(Cl)cc2)N3)cc1 (stereo not given) | 112 | 116
Cc1cccc2c(=O)cc(CSc3ccccc3NC(=O)C(C)C)[nH]c12 | 110 | 109
COc1ccc(Cl)cc1NC(=O)COC(=O)CC(C)(C)CC1=NS(=O)(=O)c2ccccc2N1 | 101 | 108
CCOC(=O)C1CCN(S(=O)(=O)c2cc3c4c(c2)C(C)C(=O)N4CCC3)CC1 (stereo not given) | 105 | 113
Cc1ccc(C(=O)N2CCc3cc(CNC(=O)c4ccnn4C)ccc32)cc1 | 107 | 104
COc1ccccc1C(=O)Nc1nc2nc(C)c(Cc3ccccc3)c(=O)n2[nH]1 | 101 | 95
CCCc1nn2c(=O)cc(COC(=O)c3ccccc3NC(=O)c3ccc(Cl)cc3)nc2s1 | 103 | 104
Cc1ccc(OCC(=O)Nc2ccc(Cl)c(-c3nc4ncccc4o3)c2)c(C)c1 | 102 | 101
COc1cc(CNC(=O)c2cc3n(n2)CCCN(Cc2cccc(F)c2)C3=O)cc(OC)c1OC | 113 | 108
Clc1ccc(CN2CCC(CNc3ncnc4onc(-c5ccc(Cl)cc5)c34)CC2)cc1 | 105 | 106
Cc1cccc(C(=O)Nc2ccc(-c3nc4ccccc4s3)c(C)c2)c1 | 100 | 91
Fc1ccc(Nc2c3c(nc4nncn24)CCC3)cc1 | 108 | 113
COc1ccc(CCNC(=O)c2ccc(Nc3nc4ccccc4n4nnnc34)cc2)cc1OC | 104 | 106
Cc1ccc(-n2ccnc(NCc3ccccc3)c2=O)cc1C | 110 | 113
Oc1ccc(NCc2ccccc2OCc2ccc(Cl)cc2)cc1 | 93 | 92
O=C(NCCc1ccccc1)c1ccc(CSc2nc3cccnc3n2Cc2ccccc2F)cc1 | 104 | 108
Cc1c(Cl)cccc1NC(=O)CSc1nc2ncccc2o1 | 101 | 98
CC(C)N(Cc1ccccc1)C(=O)Cn1ncc2c3ccccc3n(Cc3ccccc3)c2c1=O | 106 | 106
COc1ccc(C(=O)n2nc(-c3ccco3)nc2NCc2cccs2)cc1OC | 99 | 93
CCC(=O)N1CCc2cc(S(=O)(=O)CCC(=O)Nc3cc(Cl)ccc3OC)ccc21 | 90 | 90
Cc1cc(C)c2c(-n3cccc3)c(C(=O)NCCCN3CCCCC3)sc2n1 | 104 | 112
Cc1nn(CC(=O)N2CCN(c3ccccc3)CC2)c(=O)c2cccn12 | 108 | 112
COc1cccc2sc(N3CCN(C(=O)CS(=O)(=O)c4ccc(Cl)cc4)CC3)nc12 | 107 | 111
CCOc1ccccc1CNc1ccc2cc(S(=O)(=O)N3CCC(C)CC3)ccc2n1 | 102 | 110
CC(C)NS(=O)(=O)c1ccc2nc(NC(=O)c3cncc(Br)c3)sc2c1 | 106 | 103
CCc1cccc(C)c1NC(=O)C(C)Sc1nc2c(c(=O)[nH]1)CCCC2 (stereo not given) | 104 | 99
COc1ccc(-c2nc(CSCC(=O)N3CCN(c4ccccc4)CC3)c(C)o2)cc1 | 99 | 99

The list goes on.
Compound | Polio RdRp inh | Polio RdRp inh intensity
CCN(CC)c1ccc2cc(-c3nc(-c4ccccc4)no3)c(=O)oc2c1 | 44 | 244
CCc1cnc2c(c1SCC(=O)c1ccc(OC)cc1)c(=O)n(C)c(=O)n2C | 107 | 101
COc1ccc(CC(=O)NCC(c2cccs2)S(=O)(=O)c2ccc(F)cc2)cc1 (stereo not given) | 112 | 110
CCOc1cc(C(=O)Nc2ccc(-c3nnc4n3CCCCC4)cc2)cc(OCC)c1OCC | 104 | 110
Cc1ccc(C(C)C)c(OC(C)C(=O)NCC2(N(C)C)CCCCC2)c1 (stereo not given) | 103 | 100
Cc1ccc(CSC2=Nc3ccccc3C3=NC(CC(=O)NC4CCCCC4)C(=O)N23)c(C)c1 (stereo not given) | 108 | 114
COc1ccc(NC(=O)c2nnn(Cc3nc(-c4cc(OC)c(OC)c(OC)c4)oc3C)c2C)cc1Cl | 102 | 100
CC(C)c1ccc(OCC(=O)Nc2c(C(=O)c3ccc(F)cc3)oc3ccccc23)cc1 | 104 | 108
O=C(NCCCN1CCN(c2ccccc2F)CC1)C1COc2ccccc2C1 (stereo not given) | 101 | 104
CCCN1CCN(CC2=C(C(=O)OCC)C(c3ccc(Cl)cc3)NC(=O)N2)CC1 (stereo not given) | 110 | 110
CCOC(=O)c1c(C)[nH]c(CCC(=O)Nc2cc(C)cc(C)c2)c1C | 103 | 99
Cc1ccc(C)c(Nc2nc3c(S(=O)(=O)c4ccc(C(C)C)cc4)nnn3c3ccsc23)c1 | 101 | 106
CCc1ccc(NS(=O)(=O)c2ccc3[nH]cc(C(=O)N4CCCCCC4)c(=O)c3c2)cc1 | 105 | 107
COc1ccc(CN(C)c2ccc(-c3nc(C)no3)cc2[N+](=O)[O-])cc1 | 111 | 114
COc1cc(CN(C(=O)COc2ccc(Br)cc2)c2ccccn2)cc(OC)c1OC | 102 | 110
O=C(Nc1ccc(F)c(Cl)c1)C1CCN(C(=O)c2ccc(F)cc2)CC1 | 108 | 112
Cc1ccccc1OCC(=O)Nc1sc2c(c1C(=O)OC(C)C)CCCC2 | 106 | 110
CC1CCN(S(=O)(=O)c2ccc3c(ccc(=O)n3CC(=O)Nc3cccc(F)c3)c2)CC1 | 114 | 111
COc1ccc(CNC(=O)c2cc3c(=O)n(Cc4ccc(OC)cc4)ccc3nc2C)cc1 | 104 | 111
COc1ccc(N(C)C(=O)CCn2cnc3onc(-c4ccc(F)cc4)c3c2=O)c(OC)c1 | 106 | 111
COc1cc(NC(=O)c2nc(-c3ccc(Cl)cc3)n3c2CCCCC3)cc(OC)c1OC | 112 | 112
CCCCN1CCc2nc(N3CCN(C)CC3)ncc2C1 | 108 | 107
COCCCNC(=O)CSc1nc(-c2ccccc2)[nH]c1-c1ccc(C)cc1 | 107 | 106
Cc1ccc(CN2CCSc3ccc(C(=O)NCC(C)c4ccccc4)cc32)cc1 (stereo not given) | 105 | 109
COc1cccc(NC(=O)C2CCN(S(=O)(=O)c3cccc4nonc34)CC2)c1 | 108 | 110
O=C(c1ccccc1)c1ccccc1NC(=O)c1ccccc1C(=O)O | 112 | 107
CCc1nnc(SCc2cccc(Cl)c2)c2cc3sccc3n12 | 110 | 111
Cc1ccc2[nH]c(CSc3nnc(NC(=O)c4ccc(Cl)cc4)s3)cc(=O)c2c1 | 100 | 118
Cc1nc2ccn(Cc3ccco3)c(=O)c2cc1C(=O)N1CCN(c2ccccc2)CC1 | 90 | 94
COc1ccc(NC(=O)C(NC(=O)Cc2cccs2)c2ccc(OC)cc2)cc1 (stereo not given) | 110 | 107

Full records, looked up by structure. Values in the order: Polio RdRp inh | Polio RdRp inh intensity
Entry for COc1cc(CNC(=O)c2cc3n(n2)CCCN(Cc2cccc(F)c2)C3=O)cc(OC)c1OC = 113 | 108
Entry for Cc1cccc2c(=O)cc(CSc3ccccc3NC(=O)C(C)C)[nH]c12 = 110 | 109
Entry for Cc1nc2ccn(Cc3ccco3)c(=O)c2cc1C(=O)N1CCN(c2ccccc2)CC1 = 90 | 94
Entry for Cc1ccc2[nH]c(CSc3nnc(NC(=O)c4ccc(Cl)cc4)s3)cc(=O)c2c1 = 100 | 118
Entry for CCCCN1CCc2nc(N3CCN(C)CC3)ncc2C1 = 108 | 107

Other compounds follow:
Compound | Polio RdRp inh | Polio RdRp inh intensity
COc1cc(-c2cc(OC)c3c(C)oc(C)c3c(=O)c2)ccc1OC(=O)c1ccccc1Cl | 119 | 121
COc1ccc(CCNC(=O)c2cc(Nc3ccccc3)nc3ccccc23)cc1OC | 110 | 102
COc1cccc(C(=O)Nc2c3c(nn2-c2ccc(C)cc2C)CS(=O)(=O)C3)c1OC | 113 | 110
CC(=O)N1CCN(c2csc3ccc(F)cc3c2=O)CC1 | 102 | 102
CCCCn1c(NCc2ccc(N(C)C)cc2)nc2ccccc21 | 100 | 104
COc1cc(OC)c(NC(=O)c2cc(C)nc3c2c(C)nn3-c2ccc(C)cc2)cc1Cl | 109 | 114
Cc1ncc(CO)c2c1Oc1nc(-c3ccccc3Cl)nc(SCc3ccccc3F)c1C2 | 110 | 114
CSc1cccc(NC(=O)C2CCN(S(=O)(=O)c3ccc4[nH]c(=O)ccc4c3)CC2)c1 | 110 | 115
CCc1c(C)sc2c1CCN(C(=O)Nc1ccccc1Cl)C2c1ccc(OC)cc1 (stereo not given) | 107 | 113
COc1ccc(CNC(=O)CN2C(=O)CSc3ccc(S(=O)(=O)N(C)C)cc32)cc1 | 112 | 107
COc1ccc(N2CCN(C(=O)Cc3coc4ccc(C)cc34)CC2)cc1 | 116 | 119
COc1ccc(NS(=O)(=O)c2ccc(NS(=O)(=O)c3ccc4c(c3)OCCO4)cc2)cc1 | 103 | 104
COc1ccc(NC(=O)CSc2nccn2C2CCCC2)cc1OC | 107 | 112
CCC(=O)N1c2ccccc2CC1C(=O)NCc1ccccc1C (stereo not given) | 100 | 102
CCCOc1ccc(C2C(=O)N(C3CCC(C)CC3)CC(=O)N2CCC2=CCCCC2)cc1OC (stereo not given) | 109 | 108
CCOC(=O)C1CCCN(CC(=O)Nc2cc(C)c3c(=O)oc4ccccc4c3n2)C1 (stereo not given) | 116 | 116
COc1ccc(C(=O)N(Cc2sccc2C)C2CCS(=O)(=O)C2)cc1 (stereo not given) | 119 | 118
Cc1ccc2sc(N(Cc3cccnc3)C(=O)CCOc3ccccc3)nc2c1C | 111 | 116
CCOC(=O)c1c(C)[nH]c(C)c1S(=O)(=O)N1CCCC(C(=O)N2CCN(c3ccccc3F)CC2)C1 (stereo not given) | 105 | 108
CCOC(=O)c1cccc(Nc2nc(C(=O)OCC)nc3ccccc23)c1 | 105 | 113
CCc1ccc(S(=O)(=O)c2nnn3c2nc(Nc2cccc(C)c2C)c2sccc23)cc1 | 109 | 111
Cc1c2cnn(-c3ccccc3)c(=O)c2c(C)n1CCCC(=O)Nc1cc(F)ccc1F | 103 | 107
CC(C)c1ccc(NC(=O)c2ccc(F)c(S(=O)(=O)N3CCN(c4ccccc4F)CC3)c2)cc1 | 105 | 100

Some of the compounds tested; count on the stated rates, not on these rows.
